Screens (PubChem BioAssay)
HSV replic up: increases HSV replication in cells; HSV replication augmentation in cells, fold increase; maximum fold increase; AID 1956; 220,000 tested, 0.005% active;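 active = peak rise of 1.5-fold or more in the series; inconclusive = self-fluorescent or not available for retest; tested in PC3 cells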;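 also: first round at 10 µM; read as green reporter fluorescence; hits show the peak of a series up to 25 µM; 1 = signal of infected wells without compound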
RGS16-Gao: RGS16-Galphao interaction regulator (human). O15492+P09471. bead-based flow cytometry RGS16-Galphao binding, fluorescence; actives lie on both sides. binding response (% of control), % at 10 µM. 220,000 tested, 0.38% active. AID 1441;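 active = below 25% or above 175%, edge rows of some plates excepted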;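 also: Galphao activated by GDP with aluminum fluoride before binding; 100% = wells without compound and 0% = beads without RGS; some results beyond the cut were filed as inactive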
Target sequence (O15492 whole entry, looked up): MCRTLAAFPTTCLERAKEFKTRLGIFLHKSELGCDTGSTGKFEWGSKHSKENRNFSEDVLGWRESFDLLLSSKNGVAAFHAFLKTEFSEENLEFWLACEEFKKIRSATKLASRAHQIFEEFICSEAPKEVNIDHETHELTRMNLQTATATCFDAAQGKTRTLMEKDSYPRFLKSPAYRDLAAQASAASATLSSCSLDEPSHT
Target sequence (P09471 whole entry, looked up): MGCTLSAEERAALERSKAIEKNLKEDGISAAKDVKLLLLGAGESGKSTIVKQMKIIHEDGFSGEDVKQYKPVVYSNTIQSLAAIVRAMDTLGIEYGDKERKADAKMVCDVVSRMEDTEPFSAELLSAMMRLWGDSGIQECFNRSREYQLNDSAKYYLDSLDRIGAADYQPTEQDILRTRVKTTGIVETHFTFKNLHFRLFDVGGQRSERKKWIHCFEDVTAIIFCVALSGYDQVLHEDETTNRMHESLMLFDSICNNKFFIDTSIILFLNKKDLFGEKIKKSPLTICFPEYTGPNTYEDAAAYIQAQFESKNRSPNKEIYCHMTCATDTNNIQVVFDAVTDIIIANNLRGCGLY
PKD1 kinase inh: PKD1 (human) kinase inhibition. PKD1 kinase fluorescence polarization assay. 200,000 tested, 0.056% active. inhibition, %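 (about 10 µM by stock and volumes)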;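 active = inhibition of 50% or more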;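 also: controls were vehicle for no effect and a reference inhibitor for full effect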
GALR2 agonist: GALR2 (human) receptor agonism; O43603; GALR2-expressing cells, agonist activation read-out; activation, %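 (tested at 5 µM)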; 140,000 tested, 0.48% active;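 active = above mean plus 3 SD of all compounds, about 5% in these data, not always enough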;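 also: 0% = vehicle buffer wells and 100% = reference agonist at full effect; tested in CHO reporter cells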
Target sequence (O43603 whole entry, looked up): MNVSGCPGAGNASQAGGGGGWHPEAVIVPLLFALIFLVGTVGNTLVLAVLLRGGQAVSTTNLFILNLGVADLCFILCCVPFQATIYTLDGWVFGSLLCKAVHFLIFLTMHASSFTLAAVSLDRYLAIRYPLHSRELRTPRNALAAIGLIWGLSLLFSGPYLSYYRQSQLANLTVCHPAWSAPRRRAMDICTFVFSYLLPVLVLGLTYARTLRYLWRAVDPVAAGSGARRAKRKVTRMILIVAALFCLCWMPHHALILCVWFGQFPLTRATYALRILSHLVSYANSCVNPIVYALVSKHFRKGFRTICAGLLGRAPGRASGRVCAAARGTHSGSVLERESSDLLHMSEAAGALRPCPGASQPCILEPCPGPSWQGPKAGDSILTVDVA
INS promoter inh: TRM-6 insulin promoter activity inhibition | TRM-6 cells (human fetal islet line), insulin promoter-eGFP reporter, imaging; reporter expression induced with tamoxifen | inhibition, % at 2 µM | 130,000 tested, 0.9% active | AID 1273;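 active = inhibition above the mean plus 3 SD, with well images judged a real hit on visual review, cut at about 60% in these data, passing the limit was not always enough; inconclusive = inhibition over the cutoff but images rejected on review; inactive = inhibition not above the cutoff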
INS promoter inh cell count: further read-out of INS promoter inh, marked with its call; normalized cell count, %; measured here: cell count, toxicity; reference of the scale not given here;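 cells exposed to compound for 48 h; stained nuclei by imaging scaled within each plate; lower means fewer cells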
HSV replic up primary fold: further read-out of HSV replic up, marked with its call; fold increase; compound at 10 µM; measured here: primary screen fold increase 10 uM; tested in PC3 cells;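 GFP signal in the first replicate; 1 = infected wells without compound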
* marks the source's active call; other numbers are inactive results; i = inactive; u = inconclusive; x = no result given.

SMILES	HSV replic up	HSV replic up primary fold	RGS16-Gao	PKD1 kinase inh	GALR2 agonist	INS promoter inh	INS promoter inh cell count
O=Cc1[nH]c2ccccc2c1N(C(=O)CCl)c1ccc([N+](=O)[O-])cc1	i	0.99	102	x	x	x	x
CCCCC1CCCC12NC(=O)NC2=O (configuration not stated)	i	1.4	99	x	x	x	x
Cn1c(=O)c(NCCc2ccccc2)c2c3c(cccc31)C(=O)c1ccccc1-2	u	x	103	39	0.7	-170	140
NC(=O)c1ccc(NC(=O)c2ccc(CN3CCOCC3)cc2)cc1	i	0.88	x	-1	0.5	-11	75
c1csc(Cc2nc3ccccc3[nH]2)c1	i	0.94	107	-5	-1.2	27	103
C=CCN=C1S/C(=C\c2ccc(N(C)C)cc2)C(=O)N1CC=C	i	0.91	84	x	x	x	x
Cn1c(/C=C/c2ccccc2)nc2ccccc21	i	1	103	1	x	x	x
C(=N\c1nccs1)/c1c[nH]c2ccccc12	i	0.93	100	-7	-2.5	-11	80
Cc1ccccc1CSCCNC(=O)CSCc1ccc([N+](=O)[O-])cc1	x	x	117	-1	-2.1	-28	101
CO/N=C\CC(=O)Nc1ccc(Cl)cc1Cl	i	1	99	6	x	17	126
N#CC(C#N)=Cc1ccc(NC(=O)c2ccc(Br)cc2)cc1	i	0.84	96	x	x	x	x
COc1ccc(/C=C/C(=O)NC(=S)NNC(=O)c2ccco2)cc1OC	i	0.94	100	x	x	x	x
O=C1COc2ccc(C(=O)CSc3ccccc3C(=O)O)cc2N1	i	0.86	102	x	x	x	x
COC(=O)C1=C(N)OC2=C(C(=O)CC(C)(C)C2)C1c1ccoc1 (configuration not stated)	i	1.1	101	13	-1.1	x	x
Cc1ccc(NC(=S)NC(NC(=O)c2ccco2)C(Cl)(Cl)Cl)cc1 (configuration not stated)	i	0.88	99	-5	-2.3	-36	84
COc1nccnc1NS(=O)(=O)c1ccc(N=Cc2c(C)[nH]n(-c3ccc(Cl)cc3)c2=O)cc1	i	1	106	-14	0.5	x	x
CS(=O)(=O)c1ccc(C(=O)NCCN2C(=O)S/C(=C\c3cccnc3)C2=O)cc1[N+](=O)[O-]	i	0.75	97	-10	x	x	x
COc1ccc(-n2c(O)c(C=NCC(c3ccco3)N3CCCC3)c3ccccc3c2=O)cc1OC (configuration not stated)	i	1	99	-5	x	x	x
Cc1ccc(C)c(NC(=S)NC(NC(=O)N(C)C)C(Cl)(Cl)Cl)c1 (configuration not stated)	i	1.2	108	11	-2.7	-73	98
CCCCOC(=O)Nc1nnc(COc2ccccc2)s1	i	1.2	99	-10	0.4	30	132
C/C(CCC(C)C)=N\NC(=O)COc1ccccc1-c1ccccc1	i	0.58	103	-4	x	-433	14
Cn1c(=O)oc2cc(S(=O)(=O)Nc3ccccc3)ccc21	i	0.72	6	0	x	x	x
CCc1cc2c(=O)c(-c3cscn3)coc2c(CN(C)C)c1O	i	0.84	100	-7	-0.1	-12	46
Cc1cc([N+](=O)[O-])cc2c1NC(=O)C2(O)N1CCOCC1 (configuration not stated)	i	0.92	79	0	x	47	115
COc1ccc(C(=O)NCCOc2cccc(OC)c2)cc1	i	0.91	99	-3	x	x	x
COc1ccc(CC(=O)N2N=C(C)CC2(O)c2cccnc2)cc1OC (configuration not stated)	i	0.94	95	0	-0.3	27	126
CC1(C)CC(=O)C2=C(C1)N(c1cccc(O)c1)C1=C(C2)C(=O)CC(C)(C)C1	i	1.1	85	8	1.8	x	x
O=C1CCC(=O)N1c1ccc(NCCc2cccc(F)c2)c([N+](=O)[O-])c1	i	0.96	108	-1	x	6	123
O=S(=O)(/N=C/c1c(O)ccc2ccccc12)c1cccs1	i	0.86	111	1	0.4	31	99
Nc1[nH]nc2ncc3cc4ccccc4nc3c12	i	0.99	45	20	x	x	x
CN(C1=C(N2CCOCC2)C(=O)c2ccccc2C1=O)c1ccccc1	i	0.76	113	5	0.2	6	117
COCCN1Cc2cccc(C(=O)Nc3cccc(-c4nc5ccccc5[nH]4)c3)c2C1=O	i	0.82	80	x	x	x	x
CCc1sc(C(=O)N2CCc3ccccc32)cc1C	i	0.91	99	3	x	25	183
Cc1cc(C(=O)NNC(=O)CCC2CCCCC2)c(C)o1	i	1	107	-10	x	x	x
Cc1nn(-c2ccccc2)c(NC(=O)c2cccs2)c(-c2ccccc2Cl)c1=O	i	1	102	x	x	x	x
C#CCOCCOCCOCCNc1nc(N2CCN(C(=O)[C@H]([C@@H](C)CC)n3cc([C@@H](N)CO)nn3)CC2)nc(N2CCN(C(=O)[C@H](Cc3ccc(O)cc3)n3cc([C@@H](N)CC(C)C)nn3)CC2)n1	i	1.1	98	-7	x	x	x
CCOC(=O)N1CCN(C(=O)c2cc(OCC)c(OCC)c(OCC)c2)CC1	i	0.92	105	-8	x	x	x
CNc1nc2c(C)cccn2c(=O)c1C=NCc1ccccc1	x	x	102	0	-2.7	-42	93
Clc1ccccc1CSc1nncn1-c1cccnc1	i	0.94	103	-6	x	x	x
COC(=O)CSc1ccc(S(=O)(=O)N2CCCCCC2)cc1[N+](=O)[O-]	i	0.9	65	6	x	x	x
Nc1cc(C(F)(F)F)ccc1N1CCOCC1	i	1.2	104	9	x	x	x
O=C1CCCC(=O)N1c1ccc(N2CCN(c3ccc([N+](=O)[O-])cc3)CC2)c([N+](=O)[O-])c1	i	0.96	99	-3	0.6	-7	99
O=C1c2cccc(Cl)c2C(=O)c2c1cccc2N1CCCC1	i	0.79	x	4	-2.1	-44	109
COc1ccc(C(=O)N(C)C2CCN(C)CC2)cc1S(=O)(=O)Nc1cc(Cl)ccc1Cl	i	1	96	x	x	x	x
CCCc1cc(C(=O)Nc2sc(C(C)=O)c(C)c2C(=O)OCC)no1	i	0.99	101	-13	-3.8	x	x
COc1ccc(N2C(=O)C3C4C=CC(C4)C3C2=O)nn1 (configuration not stated)	i	0.82	100	-1	-2.9	61	91
CCc1cc2c(=O)c(-c3nc4ccccc4n3C)c(C(C)C)oc2c(CN2CCN(C)CC2)c1O	i	0.75	110	-20	0.7	0	115
Cc1ccc(C(=O)Nc2ccc(C(F)(F)F)n(C)c2=O)cc1	i	0.93	101	9	x	7	105
CCNc1nc(NCC)nc(N(C)N)n1	i	1.1	139	17	-3.3	4	112
Cn1c(-c2ccc(F)cc2)cnc1SCC(=O)N1CCCc2ccccc21	i	0.95	109	2	-0.6	-57	98
O=c1ccc2cc(S(=O)(=O)N3CCN(c4cc(Cl)ccc4Cl)CC3)ccc2o1	i	0.94	x	0	-2.3	-14	36
CCOc1ccc(OCC)c(NC(=O)Cn2cccc2)c1	i	1.1	103	-12	-0.5	x	x
Cn1c(SCc2nc(-c3ccc(Cl)cc3)no2)nnc1-c1ccco1	i	0.77	102	-9	-2.4	x	x
CCCN(CCO)Cc1cccc(Br)c1	i	1.1	106	2	-2.5	-77	89
CCN(CC)CCOC(=O)C1(c2ccccc2)CCOCC1	i	1	116	-9	-1.2	x	x
Cc1nnc(NC(=O)C(C)Sc2nncn2C)s1 (configuration not stated)	i	0.95	105	-2	-2.8	x	x
S=c1[nH]nc(-c2cc(-c3ccccc3)n[nH]2)n1/N=C/c1ccc(Cl)c(Cl)c1	i	1.1	106	x	x	x	x
CCC(c1nnc(SCC(=O)Nc2ccc(S(N)(=O)=O)cc2)n1Cc1ccccc1)N(C)C (configuration not stated)	i	0.84	106	-3	x	x	x
CC(C)c1ccc(/C=N/n2nnnc2Nc2ccccc2)cc1	i	0.8	101	3	-0.5	35	70
C/C(N)=C(/C#N)C(=O)CSc1nc2ccccc2c(=O)n1Cc1ccc(C)cc1	i	0.67	105	5	x	-10	64

Filtered by structure: the compounds so far containing bromine (2)
SMILES	HSV replic up	HSV replic up primary fold	RGS16-Gao	PKD1 kinase inh	GALR2 agonist	INS promoter inh	INS promoter inh cell count
N#CC(C#N)=Cc1ccc(NC(=O)c2ccc(Br)cc2)cc1	i	0.84	96	x	x	x	x
CCCN(CCO)Cc1cccc(Br)c1	i	1.1	106	2	-2.5	-77	89

The results go on.
SMILES	HSV replic up	HSV replic up primary fold	RGS16-Gao	PKD1 kinase inh	GALR2 agonist	INS promoter inh	INS promoter inh cell count
Cc1c(C(=O)OCC(C)C)[nH]c2c1C(=O)CC(c1ccco1)C2 (configuration not stated)	i	0.67	109	11	3.4	x	x
Cc1c(C2N3CC4(C)CN2CC(C)(C3)C4=O)c2ccccc2n1C (configuration not stated)	i	1.2	100	-2	1.9	12	128
COc1ccc2c(c1)[nH]c1c(=O)n(Cc3ccco3)cnc12	x	x	99	0	-3.1	17	136
Cc1cc2[nH]c(=O)c3ccccc3n2n1	i	0.87	100	-8	-2.1	83*	98*
O=C(CSCc1ccc(Cl)cc1)Nc1ccc2c(c1)OCO2	i	1.1	95	-5	-1.5	i	94
Cc1cccc(C)c1OCC(=O)N/N=C/c1ccncc1	i	0.68	103	-15	0.2	-14	151
CCOC(=O)C(/C=C(\C#N)C(=O)OCC)=C(/N)N1CCN(c2c(C)cccc2C)CC1	i	0.85	108	-4	-0.7	3	133
C=CCn1c(SCC(=O)Nc2c(C)cccc2C)nnc1-c1ccncc1	i	0.99	100	-15	-2.2	-44	92
CS(=O)(=O)c1cccc(NC(=O)c2ccc(Cl)c(Cl)c2)c1	i	0.95	97	-1	x	x	x
CCOCc1nc(C)c(Cl)c(NS(=O)(=O)c2ccc(N)cc2)n1	i	0.89	103	-1	-2.5	-23	83
Nc1cc(-c2ccc(Br)cc2)nn1S(=O)(=O)c1ccccc1	i	0.79	108	8	-1.1	x	x
Cc1nn(C(=O)c2cc3sccc3[nH]2)c(C)c1C	i	0.99	104	-15	-1.6	-13	50
CCN1CCN(C(=O)c2ccccc2N(Cc2ccccc2)S(=O)(=O)c2ccc(OC)cc2)CC1	i	0.81	104	x	x	x	x
COc1ccc(-c2csc(N(CCCN(C)C)C(=O)c3cccs3)n2)cc1	i	0.76	93	-4	-3.0	-4	125
CCOC(=O)C1=C(c2ccccc2)OC(N)=C(C#N)C1c1ccc(Cl)s1 (configuration not stated)	i	0.8	101	3	-2.2	21	81

Continued, overlapping the part above by 3 compounds.
SMILES	HSV replic up	HSV replic up primary fold	RGS16-Gao	PKD1 kinase inh	GALR2 agonist	INS promoter inh	INS promoter inh cell count
CCN1CCN(C(=O)c2ccccc2N(Cc2ccccc2)S(=O)(=O)c2ccc(OC)cc2)CC1	i	0.81	104	x	x	x	x
COc1ccc(-c2csc(N(CCCN(C)C)C(=O)c3cccs3)n2)cc1	i	0.76	93	-4	-3.0	-4	125
CCOC(=O)C1=C(c2ccccc2)OC(N)=C(C#N)C1c1ccc(Cl)s1 (configuration not stated)	i	0.8	101	3	-2.2	21	81
O=C(CN1C(=O)C2C3C=CC(C3)C2C1=O)NCCC1=CCCCC1 (configuration not stated)	i	1	100	-6	-2.3	-62	63
CCn1ncc(CN2CCN(Cc3ccc(OC)c(C)c3C)C(CCO)C2)c1C (configuration not stated)	i	1	105	0	x	-183	91
N#CCSc1nnc(COc2cccc3ccccc23)n1-c1cccc(Cl)c1	i	0.96	101	-4	-1.6	-6	138
O=C(NCc1ccc(Cl)c(Cl)c1)c1ccco1	i	0.94	103	-6	-0.1	15	88
NC(=O)COC(=O)c1ccc(-c2ccccc2)cc1	i	1	99	6	x	x	x
C/C(N)=C(/C#N)C(=O)CSc1n[nH]c(-c2ccccc2Br)n1	i	0.92	101	-7	-3.4	x	x
COc1cc(C)ccc1S(=O)(=O)n1nc(C)cc1C	i	0.97	101	-6	x	x	x
Cc1ccc(C)c(S(=O)(=O)C(C#N)c2nc3ccccc3nc2N2CCCC2)c1 (configuration not stated)	i	0.93	111	-11	-1.1	-22	125
CCC(=O)NNC(=O)CCC(=O)Nc1ccccc1	x	x	105	-4	0.2	x	x
Cc1ccccc1Cn1cc(NC(=O)c2cc(-c3ccco3)on2)cn1	i	0.88	100	-2	x	x	x
CN(C(=O)C(Cl)Cl)C1CC2C=CC1C2 (configuration not stated)	i	1.1	97	x	x	x	x
Fc1ccccc1OCCCCn1cncn1	i	1.1	114	0	-0.2	-8	162
CCN(CC)CC(=O)N1c2ccccc2CCc2ccc(NC(=O)c3cc(OC)c(OC)c(OC)c3)cc21	i	1	97	x	x	x	x
O=C(CSc1nnc(-c2cccc(Cl)c2)o1)Nc1ccc2c(c1)OCCO2	i	0.93	104	5	-1.0	50	136
Cc1noc2ncnc(Oc3cc(Cl)ccc3Cl)c12	i	1.1	86	-5	x	-30	97
CCOC(=O)N1CCC(NC(=O)C2CCC(CNS(=O)(=O)c3ccc(OC)cc3)CC2)CC1 (configuration not stated)	i	0.85	104	-4	-1.6	-86	132
N#Cc1ccc(C(=O)CSc2nnc(-c3ccc(C(F)(F)F)cn3)s2)cc1	i	1.1	98	x	x	x	x
